Screening data (PubChem BioAssay)
RE007 growth inh: less growth of the S. pombe RE007 Vpr strain. S. pombe RE007 Vpr strain, BacTiter-Glo ATP luminescence, 24 h; control for the full effect not named in the record. Potency, µM (highest dose often 92.2 µM), for the others: at the top dose activity change, negative = less growth. 360,000 compounds, 0.21% hits; active = well fitted falling curve with a large enough effect; inconclusive = small, poorly fitted or top-dose-only effect; inactive = no such curve, though single readings can be large or run the other way;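 note: % is set by controls: 0 for no effect and ±100 for the full control effect; nearly all actives have a fitted effect of over 50% in size; the assay follows cell death caused by Vpr and the record does not say whether a fall means rescue or toxicity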
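Fission yeast RE007 carrying one integrated HIV-1 vpr copy, seeded at OD 0.01 in PMG+AL medium with 23 nL pinned compound. Grown 24 h at 30 degrees; viability read by BacTiter-Glo luminescence after 5 min.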
NS1 inh: blocks influenza NS1 protein function; S. cerevisiae slowed by influenza A NS1, growth recovery by OD600; Potency, µM (series often up to 46.1 µM), inactives show at the highest dose activity, positive = more growth; 270,000 compounds, 0.4% hits; AID 2326; note: actives are rising curves; nearly all actives have a fitted effect of over 50% in size
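In this qHTS, NS1 from influenza A is expressed in budding yeast, where it slows growth. Cells are switched from glucose to 2% galactose medium (pH 6.0, -URA), treated with compound, and growth recovery is read at OD600.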
LASV entry inh: Lassa virus entry inhibition | Lassa virus pseudotype entry inhibition, cell reporter; control for the full effect not named in the record | Potency, µM (top dose mostly 37.9 µM), inactives show top-dose activity change, negative = inhibition, most hits filed as inhibitors | 300,000 compounds, 1.2% hits; active means well fitted inhibition curve with a large enough effect; inconclusive means small, poorly fitted or top-dose-only effect, or effect the other way; inactive means flat fitted curve, though single readings scatter; tested in HEK293 cells; note: % is set by controls: 0 for no effect and ±100 for the full control effect; nearly all actives have a fitted effect of over 50% in size; luciferase read-out
MARV entry inh: inhibitors of Marburg virus binding or cell entry. Marburg virus pseudotyped entry inhibition, cell reporter; control for the full effect not named in the record; about a third of the inactives were read at about 46 µM. Potency, µM (top dose mostly 37.8 µM), without a hit: at the highest dose activity change, negative = inhibition, usual class: inhibitors. 300,000 compounds, 1.8% hits; active = well fitted inhibition curve with a large enough effect; inconclusive = small, poorly fitted or top-dose-only effect, or effect the other way; inactive = flat fitted curve, though single readings scatter; tested in HEK293 cells; about a fifth of its hits are not listed in these tables; note: % is set by controls: 0 for no effect and ±100 for the full control effect; luciferase read-out
Cruzain Triton: cruzain (T. cruzi) inhibition with detergent | P25779 | purified cruzain, Z-FR-AMC fluorescence, 0.01% Triton | Potency, µM, inactives show max response, negative = inhibition, hits mostly inhibitors | 200,000 compounds, 0.43% hits | AID 1478; active = well fitted curve in the direction sought with a large enough effect; inconclusive = small, poorly fitted or top-dose-only effect, or another doubt; inactive = no such curve, though single readings can be large; an effect the other way counts as inactive or inconclusive;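 note: plate controls were neutral wells for no effect and buffer without enzyme for full effect; nearly all actives have a fitted effect of over 40% in size; top concentration of the series not given in the record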
Target sequence (P25779 123-467 limits assumed): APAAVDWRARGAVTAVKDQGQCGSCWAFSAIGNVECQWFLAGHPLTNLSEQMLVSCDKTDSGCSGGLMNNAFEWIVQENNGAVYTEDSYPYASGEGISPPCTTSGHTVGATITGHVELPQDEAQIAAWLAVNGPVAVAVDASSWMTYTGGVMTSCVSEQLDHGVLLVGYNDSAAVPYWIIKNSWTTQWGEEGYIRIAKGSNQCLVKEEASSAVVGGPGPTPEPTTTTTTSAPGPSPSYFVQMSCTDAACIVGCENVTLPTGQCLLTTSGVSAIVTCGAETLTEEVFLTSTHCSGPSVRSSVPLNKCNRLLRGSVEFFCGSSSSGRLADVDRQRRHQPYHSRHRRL
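Steps: dispense cruzain (1.5 nM final) in acetate buffer pH 5.5 with DTT and 0.01% Triton X-100; pin-transfer compounds; incubate 15 min RT; add Z-FR-AMC (2 uM final); read fluorescence every 30 s, using the 60 s intensity change.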
StopGo reporter: lowers the luciferase signal of an FMDV 2A StopGo reporter. human cells with a luciferase reporter of 2A StopGo recoding; control for the full effect not named in the record. Potency, µM (titrated, usually from 57.9 µM), inactives show top-dose signal change, negative = less light. 410,000 compounds, 1.2% hits. AID 1159524; active = well fitted falling curve with a large enough effect; inconclusive = small, poorly fitted or top-dose-only effect; inactive = no such curve, though single readings can be large or run the other way; tested in HEK293T cells; note: % is set by controls: 0 for no effect and ±100 for the full control effect; nearly all actives have a fitted effect of over 45% in size; luciferase light after 4 h
SARS PLP yeast: inhibitors of SARS-CoV papain-like protease in yeast; S. cerevisiae expressing SARS-CoV PLpro, growth rescue; control for the full effect not named in the record; AID 485353; Potency, µM (titrated, usually from 32.9 µM), for the others: top-dose activity, positive = growth rescue; 330,000 compounds, 0.19% hits; note: 0% is about no effect; nearly all actives have a fitted effect of over 55% in size; growth read by luminescence after 48 h
Cruzain noTriton: cruzain (T. cruzi) inhibition without detergent. 200,000 compounds, 2.3% hits. Potency, µM, inactives show max response, negative = inhibition, most hits filed as inhibitors. P25779. purified cruzain, Z-FR-AMC fluorescence, no detergent; active = well fitted curve in the direction sought with a large enough effect; inconclusive = small, poorly fitted or top-dose-only effect, or another doubt; inactive = no such curve, though single readings can be large; an effect the other way counts as inactive or inconclusive;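 note: plate controls were enzyme without inhibitor for no effect and buffer without enzyme for full effect; nearly all actives have a fitted effect of over 40% in size; top concentration of the series not given in the record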
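Purified cruzain at 1.5 nM, pre-incubated 15 min with compound at room temperature in 100 mM sodium acetate pH 5.5, 5 mM DTT, 0.00005% Triton X-100. Reaction started with 2 uM Z-FR-AMC; AMC fluorescence increase over 60 s gives rate.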
Numbers without * were called inactive; ? = inconclusive; . = not tested or not shown; [ ] = another dose, or the depositor's remark. Unless noted, calls come from the whole dose curve; as a rule, active means well fitted rising curve with a large enough effect; inconclusive means small, poorly fitted or top-dose-only effect; inactive means no such curve, though single readings can be large or run the other way. Potency is the fitted concentration of half-maximal effect.

SMILES	RE007 growth inh	NS1 inh	LASV entry inh	MARV entry inh	Cruzain Triton	StopGo reporter	SARS PLP yeast	Cruzain noTriton
CC(=O)c1c(C(=O)O)c2ccccc2[nH]c1=O	11%	-3%	.	.	.	-11%	1%	.
CC(NC(=O)C(C)N1CCN(Cc2ccccc2)CC1)c1ccc(F)cc1 (stereo unspecified)	-20%	-4%	-3%	-12%[46.1 µM]	.	7%	-9%	.
CCn1cc(Cl)c(C(=O)Nc2nc3ccccc3n2CCN2CCCCC2)n1	5%	-1%	.	.	-1.9%	-8%	-5%	-10%
CCOC(=O)Nc1ccc2nc(N3CCCCCC3)sc2c1	-10%	-40%	.	.	.	69%[activator]	-2%	.
N#Cc1ccccc1NC(=O)COC(=O)c1c[nH]c2ccccc12	4%	.	0%	10%	.	20%	-4%	.
Cc1nc(Nc2ccc(C(=O)O)cc2)sc1-c1ccccc1	7%	?	?	?	.	7.1µM*	1%	.
C/C(CC(=O)NCc1ccco1)=N\NC(=O)COc1ccc(Cl)cc1Cl	-4%	-3%	-12%[46.1 µM]	?	.	11%	1%	.
Cc1ccc(C2C(C=Nc3c(C)n(C)n(-c4ccccc4)c3=O)=C(c3ccccc3)Oc3ccccc32)cc1 (stereo unspecified)	2%	0%	-30%	?	-3.5%	?	-11%	7.9µM*
Cc1nc(C(=O)Nc2cc(Cl)ccc2Cl)nn1-c1cc(OC(C)C)c(Cl)cc1Cl	3%	7%	-2%	-7%	3.6%	-4%	4%	25µM*
CCCCN(C(=O)C(C)N1C(=O)c2ccccc2C1=O)c1c(N)n(CC(C)C)c(=O)[nH]c1=O (stereo unspecified)	-5%	.	11%	16%	.	-15%	0%	.
COc1ccc(N(CC(=O)NC2CCCC2)C(=O)Cn2nnc(-c3ccc(C)o3)n2)c(OC)c1	-16%	-3%	.	0%[46.1 µM]	.	16%	4%	.
COc1ccc(N2CC(C(=O)OCC(=O)Nc3cccc(C)c3C)CC2=O)cc1 (stereo unspecified)	2%	-4%	-3%	5%[46.1 µM]	.	10%	2%	.
Cc1ccc(Cn2c(SCc3ccc(C(=O)O)cc3)nc3cccnc32)cc1	.	.	.	-18%[46.1 µM]	-5.7%	-9%	.	-13%
CC1(C)CC(N2CN(C3CCCCC3)CC2=O)CC(C)(C)N1	24%	?	0%	11%	5.3%	13%	9%	7%

A different layout for part of the listing above.
canonical_smiles,RE007 growth inh,NS1 inh,LASV entry inh,MARV entry inh,Cruzain Triton,StopGo reporter,SARS PLP yeast,Cruzain noTriton
Cc1nc(Nc2ccc(C(=O)O)cc2)sc1-c1ccccc1,7%,?,?,?,.,7.1µM*,1%,.
C/C(CC(=O)NCc1ccco1)=N\NC(=O)COc1ccc(Cl)cc1Cl,-4%,-3%,-12%[46.1 µM],?,.,11%,1%,.
Cc1ccc(C2C(C=Nc3c(C)n(C)n(-c4ccccc4)c3=O)=C(c3ccccc3)Oc3ccccc32)cc1 (stereo unspecified),2%,0%,-30%,?,-3.5%,?,-11%,7.9µM*
Cc1nc(C(=O)Nc2cc(Cl)ccc2Cl)nn1-c1cc(OC(C)C)c(Cl)cc1Cl,3%,7%,-2%,-7%,3.6%,-4%,4%,25µM*
CCCCN(C(=O)C(C)N1C(=O)c2ccccc2C1=O)c1c(N)n(CC(C)C)c(=O)[nH]c1=O (stereo unspecified),-5%,.,11%,16%,.,-15%,0%,.
COc1ccc(N(CC(=O)NC2CCCC2)C(=O)Cn2nnc(-c3ccc(C)o3)n2)c(OC)c1,-16%,-3%,.,0%[46.1 µM],.,16%,4%,.
COc1ccc(N2CC(C(=O)OCC(=O)Nc3cccc(C)c3C)CC2=O)cc1 (stereo unspecified),2%,-4%,-3%,5%[46.1 µM],.,10%,2%,.
